Assay outcomes: PubChem BioAssay, several laboratories
Ecoli growth – E. coli growth inhibition, primary screen, OD600. Escherichia coli growth, 23 h; hits give low values. OD600 absorbance (test concentration not listed). 330,000 tested, 0.21% active. AID 1053175, 2014;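 active means OD600 absorbance below the run mean of sample wells minus 3.6 SD, in any replicate, cut at about 0.56 in these data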;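 further: stock transfer was 300 nL into about 60 µL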
FGF22 binding – binders of human FGF22 protein, primary screen, FGF22 synaptogenesis inhibitor project, biophysical, thermal shift, single point; 340,000 tested, 1.5% active; AID 651658, 2012; recombinant FGF22 thermal shift, SYPRO orange fluorescence; percent of sucrose octasulfate shift, DMSO zero; Fibroblast growth factor 22 (Homo sapiens), Q9HCT0; calls only at 9.99 µM;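 active means melting point raised past a set limit in the mean and every replicate; three in four hits are not shown here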
Target sequence (Q9HCT0 whole entry, looked up): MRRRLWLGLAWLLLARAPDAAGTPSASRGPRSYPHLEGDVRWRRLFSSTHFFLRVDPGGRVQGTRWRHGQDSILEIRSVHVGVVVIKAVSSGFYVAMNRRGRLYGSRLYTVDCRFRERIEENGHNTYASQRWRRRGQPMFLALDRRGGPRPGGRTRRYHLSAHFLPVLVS
HNF4A DNA FP – change in binding of human HNF4A to DNA, primary screen, biochemical, fluorescence polarization, FITC-DNA; 360,000 tested, 0.3% active; AID 1224865, 2016; activity change, % at 10 µM; 1 h; in the data active means activity change above about 30%, passing the limit was not always enough;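 further: controls were the assay level and a saturating level of protein; the project sought stronger binding though the title names inhibitors; some compounds called inactive have numbers as strong as hits; positive values seem to mean higher polarization but the record does not say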
Target sequence (P41235 whole entry, looked up): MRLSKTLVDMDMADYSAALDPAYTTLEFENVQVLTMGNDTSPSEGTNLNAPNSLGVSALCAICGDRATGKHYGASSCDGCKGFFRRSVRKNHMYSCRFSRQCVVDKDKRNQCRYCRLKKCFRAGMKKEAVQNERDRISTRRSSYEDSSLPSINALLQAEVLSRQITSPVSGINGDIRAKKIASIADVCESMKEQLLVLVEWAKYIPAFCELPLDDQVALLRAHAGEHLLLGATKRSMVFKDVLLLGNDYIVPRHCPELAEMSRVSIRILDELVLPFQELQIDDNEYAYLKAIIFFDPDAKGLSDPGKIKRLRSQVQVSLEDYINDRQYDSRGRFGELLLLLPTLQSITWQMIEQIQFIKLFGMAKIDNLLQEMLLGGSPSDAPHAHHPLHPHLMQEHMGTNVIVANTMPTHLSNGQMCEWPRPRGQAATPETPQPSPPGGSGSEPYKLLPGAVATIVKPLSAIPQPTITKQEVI
UCH37 inh – inhibitors of human UCH37 deubiquitinase, primary screen, biochemical, Ub-AMC cleavage, fluorescence. inhibition, % (test concentration not listed). purified proteasome/UCH37. 330,000 tested, 0.33% active;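 active means mean of two replicates above 20%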;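 further: 0% = compound-free wells with enzyme and 100% = wells lacking proteasome; stock transfer was 100 nL into about 20 µL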
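Material: human UCH37 enzyme supplied as purified proteasome complex / Amount: 0.15 nM proteasome as dispensed / Buffer or medium: pH 7.4 Tris-HCl (50 mM) with ovalbumin, ATP-MgCl2, DTT / Times: preincubation 30 min, reaction 25 min, room temperature / Technique: AMC fluorescence from Ub-AMC cleavage, excitation 355 nm, emission 460 nm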
Beta2AR agonist – beta2AR agonists driving receptor internalization, primary screen, cell-based, FAP fluorogen, flow cytometry. 340,000 tested, 0.43% active. Am2.2-beta2AR cells; reference of the scale not given here. response, % (concentration not given with the values). Beta-2 adrenergic receptor (Homo sapiens), P07550;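 active means response above a set limit, near 3 SD of response in nonfluorescent compounds, cut at about 42% in these data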;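 further: stock transfer was 100 nL into about 11 µL; a reference agonist was the positive control; negative values mostly stem from fluorescent compounds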
Target sequence (P07550 whole entry, looked up): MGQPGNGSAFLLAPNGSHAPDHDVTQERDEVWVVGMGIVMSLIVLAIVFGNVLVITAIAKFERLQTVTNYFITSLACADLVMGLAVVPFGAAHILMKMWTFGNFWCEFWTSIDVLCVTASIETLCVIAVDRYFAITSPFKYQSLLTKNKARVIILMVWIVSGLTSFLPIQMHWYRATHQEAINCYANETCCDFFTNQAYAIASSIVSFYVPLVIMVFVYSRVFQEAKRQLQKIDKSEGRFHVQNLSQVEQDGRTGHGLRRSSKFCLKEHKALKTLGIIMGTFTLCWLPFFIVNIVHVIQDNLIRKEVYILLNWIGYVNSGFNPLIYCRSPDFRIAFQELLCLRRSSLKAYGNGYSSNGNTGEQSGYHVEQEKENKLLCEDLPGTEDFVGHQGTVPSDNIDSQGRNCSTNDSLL
ALR H2O2 inh – inhibitors of human ALR sulfhydryl oxidase, primary screen, biochemical, H2O2 detection, HRP-luminol luminescence, single point; FAD-linked sulfhydryl oxidase ALR (Homo sapiens), P55789; purified ALR, DTT oxidation; inhibition, % (no concentration beside the values); 290,000 tested, 3.8% active;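 active means mean and each replicate at 75% or more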;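 further: stock transfer was 7.5 nL into about 7.5 µL; 0% = neutral wells and 100% = wells with inactivated enzyme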
LANA-H2A inh – blockers of LANA interaction with H2A/H2B – biochemical, FP readout, HTS, primary screen | 320,000 tested, 0.6% active | inhibition, % (no concentration beside the values) | cell-free LANA-H2A/H2B peptide, fluorescence polarization | Protein LANA1 (Human herpesvirus 8 type P (isolate GK18)), Q9QR71; in the data active means inhibition mostly above about 10%, no sharp cut-off; inactive means mostly below about 6.7%;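 further: stock transfer was 7.5 nL into about 10 µL; 0% = median of vehicle wells and 100% = median of positive control wells; one replicate is shown; the record names a cut of 25% in any replicate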
* hit, by the source's call; i = inactive; x = not tested or not shown. A portion of the library, so the mix of outcomes need not match the whole.

SMILES | Ecoli growth | FGF22 binding | HNF4A DNA FP | UCH37 inh | Beta2AR agonist | ALR H2O2 inh | LANA-H2A inh
CCOc1ccc(S(=O)(=O)N2CCC(C(=O)OC(C)C(=O)N3CCOCC3)CC2)cc1 (stereo unspecified) | 0.723 | i | -2.8 | -0.5 | -5.6 | -9.4 | 11.2
Cc1ccccc1OCCC(=O)N(CC(=O)Nc1ccccc1C(F)(F)F)Cc1ccco1 | 0.654 | i | -0.9 | -0.1 | -5.6 | 13.3 | 1.8
CN(C)c1ccc(Nc2nc(N)c([N+](=O)[O-])c(N3CCOCC3)n2)cc1 | 0.704 | i | 0.2 | 14.3 | 32.8 | 98.9* | -4.4
Cc1ccc(NC(=O)c2cccs2)cc1NC(=O)c1cccc(F)c1 | 0.661 | i | 2.2 | 1.5 | -3.4 | 0.8 | -3.7
CC(=O)N1CCc2ccc(N)cc21 | 0.638 | i | 1.5 | 1.7 | 4.1 | x | x
O=[N+]([O-])c1ccc(-n2nncc2-c2ccccc2)cc1 | 0.701 | i | 2.8 | 3.9 | -3.8 | -13.1 | -0.3
COc1ccc(-n2c(-c3ccc(Br)cc3)c[n+]3c2CCc2ccccc2-3)cc1 | 0.668 | i | -2.0 | 9.9 | -17.2 | -4.1 | 3.6
Cc1c(C(=O)Nc2nc3ccccc3[nH]2)oc2ccccc12 | 0.662 | i | -0.7 | -7.6 | 2.3 | 5.1 | -2.6
CCCCOc1ccc(C(=O)NCC(=O)NCCOc2ccccc2)cc1 | 0.627 | i | -1.6 | 1.7 | -2.4 | -4.0 | 0.5
CCCCNC(=O)CCC(=O)N1CCN(C(c2ccccc2)c2ccccc2)CC1 | 0.683 | i | -0.2 | 5.3 | 11.6 | -26.7 | -0.4
Cc1cc(C)c2c3c(oc2n1)C(=O)N(c1cccc(Cl)c1)CC(=O)N3 | 0.648 | i | -3.0 | 4.6 | -14.9 | x | -0.6
O=C(O)C1C2C=CC(O2)C1C(=O)NCc1ccc(Cl)cc1 (stereo unspecified) | 0.693 | x | 0.5 | 2.3 | -2.2 | 16.0 | 0.8
CC(C)(C)c1ccc(OCCOc2ccc(C(C)(C)C)cc2NC=O)c(NC=O)c1 | 0.71 | i | 0.1 | -0.4 | 19.0 | x | -0.9
COc1ccc(C(=O)NC(=S)N2CCCC2)cc1 | 0.66 | i | 5.8 | 2.3 | -1.6 | -10.4 | 1.7
O=c1cc(N2CCc3ccccc32)[nH]c(=O)n1-c1ccc(Cl)cc1 | 0.682 | i | 2.0 | 4.6 | -192.0 | -14.6 | 11.3
Cc1ccc(OCCSc2nc3ccccc3n2CCC(=O)O)cc1 | 0.653 | i | 1.9 | 2.9 | 14.2 | 7.1 | -0.1
Cc1ncc([N+](=O)[O-])n1S(=O)(=O)c1cc(Cl)ccc1Cl | 0.634 | i | -1.3 | 3.9 | -0.3 | -17.2 | 3.6
CC1=C(C(=O)OC(C)C)C(c2ccncc2)n2ncnc2N1 (stereo unspecified) | 0.748 | x | 0.9 | 1.4 | -7.0 | 1.7 | 4.5
O=c1c([N+](=O)[O-])cccn1Cc1cccc(Br)c1 | 0.658 | i | 1.0 | 6.1 | -12.0 | -10.1 | 1.1
CC(=O)c1cc(C#N)c(NCc2ccccc2)nc1C | 0.717 | i | 3.7 | 5.2 | -2.9 | -19.3 | 2.1

A run of entries taken from the entries so far, for reference:
SMILES | Ecoli growth | FGF22 binding | HNF4A DNA FP | UCH37 inh | Beta2AR agonist | ALR H2O2 inh | LANA-H2A inh
CCOc1ccc(S(=O)(=O)N2CCC(C(=O)OC(C)C(=O)N3CCOCC3)CC2)cc1 (stereo unspecified) | 0.723 | i | -2.8 | -0.5 | -5.6 | -9.4 | 11.2
Cc1ccccc1OCCC(=O)N(CC(=O)Nc1ccccc1C(F)(F)F)Cc1ccco1 | 0.654 | i | -0.9 | -0.1 | -5.6 | 13.3 | 1.8
CN(C)c1ccc(Nc2nc(N)c([N+](=O)[O-])c(N3CCOCC3)n2)cc1 | 0.704 | i | 0.2 | 14.3 | 32.8 | 98.9* | -4.4
Cc1ccc(NC(=O)c2cccs2)cc1NC(=O)c1cccc(F)c1 | 0.661 | i | 2.2 | 1.5 | -3.4 | 0.8 | -3.7
CC(=O)N1CCc2ccc(N)cc21 | 0.638 | i | 1.5 | 1.7 | 4.1 | x | x
O=[N+]([O-])c1ccc(-n2nncc2-c2ccccc2)cc1 | 0.701 | i | 2.8 | 3.9 | -3.8 | -13.1 | -0.3
COc1ccc(-n2c(-c3ccc(Br)cc3)c[n+]3c2CCc2ccccc2-3)cc1 | 0.668 | i | -2.0 | 9.9 | -17.2 | -4.1 | 3.6
Cc1c(C(=O)Nc2nc3ccccc3[nH]2)oc2ccccc12 | 0.662 | i | -0.7 | -7.6 | 2.3 | 5.1 | -2.6

(more compounds)
SMILES | Ecoli growth | FGF22 binding | HNF4A DNA FP | UCH37 inh | Beta2AR agonist | ALR H2O2 inh | LANA-H2A inh
CN(Cc1ccccc1)C(=O)c1ccc(NC(=O)Cc2cccc(NC(=O)C3CCN(C(=O)C4CCCC4)CC3)c2)cc1 | 0.803 | i | 1.1 | 3.0 | -11.3 | -1.0 | 1.9
Cc1ccc(CN2CCN(Cc3cnn(-c4ccc(Cl)cc4)c3)CC2CCO)o1 (stereo unspecified) | 0.676 | x | 0.2 | 1.7 | -0.9 | x | -3.1
O=C(NCc1ccco1)c1ccc(CS(=O)Cc2ccc(Cl)cc2)o1 (stereo unspecified) | 0.697 | i | -3.1 | 1.3 | -1.9 | -4.6 | -3.0
Cc1cc(NC(=O)c2cnn3c(C(F)(F)F)cc(-c4ccccc4)nc23)no1 | 0.673 | x | -0.7 | -0.3 | -8.2 | 1.2 | 6.5
S=c1[nH]nc(C2CCCCC2)n1/N=C/c1ccco1 | x | x | -0.4 | x | 2.3 | 14.3 | -3.1
Cc1nn(Cc2ccccc2Cl)c(C)c1C(=O)Nc1nnc(C2CC2)s1 | 0.671 | x | -1.7 | 1.4 | -5.0 | 17.7 | -7.8
CNC(=O)N1c2ccccc2CCc2ccccc21 | 0.653 | x | -1.2 | -0.1 | 3.4 | -1.9 | 4.2
O=C(Cn1[nH]c(=O)c2ccccc2c1=O)OCC(=O)N(Cc1ccccc1)Cc1ccccc1 | 0.761 | x | 2.0 | 1.0 | 0.4 | x | x
O=C(COC(=O)c1cc(S(=O)(=O)N2CCOCC2)ccc1O)Nc1ccc2c(c1)OCO2 | 0.673 | i | -4.1 | -5.5 | 1.2 | -3.5 | -6.4
CC1(C)N=C(c2cccc(F)c2)C(=O)N1 | 0.604 | i | 1.2 | 1.9 | 2.7 | -7.0 | 1.3
Cc1cc(C(=O)N/N=C/c2ccc(OC(=O)c3ccccc3Br)cc2)n[nH]1 | x | x | -0.3 | x | 2.3 | -8.6 | 2.0
COc1ccc(/C=C(\NC(=O)c2ccccc2)C(=O)NCc2ccco2)cc1 | 0.718 | i | 4.0 | 5.2 | 8.3 | -10.2 | 2.1
Cc1cc(NC(=O)/C=C/c2ccccc2Cl)no1 | 0.699 | x | -0.1 | 1.9 | -3.4 | 11.6 | -3.6
O=[N+]([O-])c1cccc2ccc(/C=C/c3ccc(C(F)(F)F)cc3)nc12 | 0.712 | i | -0.4 | 3.6 | 3.3 | -1.6 | -2.9
CCCn1c(SCC(=O)c2ccc3c(c2)OCCO3)n[nH]c1=O | 0.691 | i | 1.1 | -0.1 | -2.1 | 26.7 | -2.1
COc1cccc(-c2nc3ccccc3s2)c1O | 0.709 | i | -0.9 | -0.6 | -7.4 | -1.7 | 1.6
CC1CCCCN1CC(=O)Nc1sccc1C#N (stereo unspecified) | 0.674 | x | -3.1 | 1.1 | 4.7 | -10.8 | -2.1
C#CCOCCOCCOCCNc1nc(N2CCN(C(=O)Cn3cc(CC(C)O)nn3)CC2)nc(N2CCN(C(=O)[C@H](CCCCN)n3cc(CCCC)nn3)CC2)n1 (stereo partly specified) | x | i | 1.4 | 1.0 | 5.9 | x | x
NC(=O)c1c(NC(=O)c2ccccc2)sc2c1CCCC2 | 0.685 | i | 2.6 | -179.8 | 0.0 | -3.7 | -5.1
CC(=O)NC(C)c1cc(F)c2cccnc2c1O (stereo unspecified) | 0.638 | i | -0.9 | 1.2 | 5.7 | -14.4 | -3.7
CC(=O)Nc1ccc(S(=O)(=O)N2CCCC2C(=O)O)cc1 (stereo unspecified) | 0.709 | x | -1.3 | 3.0 | 0.0 | -7.6 | -2.9
Nc1ccccc1SCc1cc([N+](=O)[O-])cc2c1OCOC2 | 0.699 | x | 0.7 | 5.0 | -11.7 | 62.4 | 1.7
Cc1cccc(OCCC(=O)NCC(c2ccco2)N2CCCCC2)c1 (stereo unspecified) | 0.685 | x | -2.2 | 2.1 | 1.0 | 5.0 | -2.1
Cc1ccccc1-c1nc(-c2ccccn2)no1 | 0.634 | i | 4.4 | -0.4 | -2.5 | 4.9 | -7.1
C=CCN(CC(=O)NC1CC1)S(=O)(=O)c1cccc(C(F)(F)F)c1 | 0.693 | i | 0.5 | 1.6 | -13.2 | -3.8 | -4.9
Cc1nn(CC2CC2)c(=O)n1-c1ccc(F)cc1 | 0.679 | i | 1.6 | 2.8 | -5.7 | -7.8 | 6.3
Cc1ccc2cccc(OCC(=O)N(C)CC(=O)Nc3ccc(F)cc3)c2n1 | 0.625 | i | -1.3 | -1.4 | 4.9 | -4.8 | -1.8
Cc1ccc(S(=O)(=O)Nc2ccc3c(c2)nc(CCN2CCN(c4ccccn4)CC2)n3C)cc1 | 0.668 | i | 0.1 | 4.1 | -3.3 | -8.0 | 8.8
COc1cc2c(cc1OC)C(c1cc3ccccc3oc1=O)=NC(C)(C)C2 | 0.721 | x | 4.2 | 1.3 | 0.4 | 24.8 | -8.5
CCOC(=O)N1CCN(c2nc(=S)n(-c3ccccc3)c(C)c2C(C)=O)CC1 | 0.784 | x | -1.7 | -3.0 | -1.5 | 9.7 | -0.1
CC(C)Cc1nc(SCC(=O)NCc2ccccc2)n[nH]1 | 0.769 | x | 0.8 | 5.5 | -4.4 | -2.6 | -9.5
COc1ccc(C(=O)N/N=C/c2ccc(OC)c(CN3CCCc4ccccc43)c2)cc1 | x | x | 4.0 | x | 1.1 | -4.7 | 0.9
CCOC(=O)c1ccc(NC(=S)N2CCSC2c2ccc(Cl)cc2)cc1 (stereo unspecified) | 0.721 | i | 0.6 | 3.6 | 17.6 | -2.2 | x
COc1ccc(N2CCN(C(=O)Cc3ccc(Cl)cc3)CC2)cc1 | 0.642 | i | 0.6 | 1.6 | 6.2 | 71.0 | -2.1
CCOC(=O)c1ccc(CNC(=O)c2cc(C(C)(C)C)oc2C)o1 | 0.708 | x | 3.9 | 0.8 | -13.7 | 6.1 | -1.0
C/C(CC(=O)Nc1cccc(C(F)(F)F)c1)=N\NC(=O)c1ccncc1 | x | i | -1.3 | x | 14.0 | 23.9 | -0.7
COC(=O)c1ccc(COc2ccc(C=O)cc2OC)o1 | 0.691 | i | 1.3 | 0.4 | 16.4 | 1.1 | 2.8
CCN(CC)C(=O)CSc1nc2cc3c(cc2c(=O)n1Cc1ccc2c(c1)OCO2)OCO3 | 0.765 | x | -2.1 | -0.7 | -7.5 | -3.8 | 1.6
COc1cccc(-c2ccc(NC(=O)C3CCCN(Cc4nccn4C)C3)cc2)c1 (stereo unspecified) | 0.725 | i | 2.1 | 4.9 | 12.3 | -3.7 | -0.3
